Compound activity from PubChem.
LANA-H2A inh = blockers of LANA interaction with H2A/H2B – biochemical, FP readout, HTS, primary screen. Protein LANA1 (Human herpesvirus 8 type P (isolate GK18)), Q9QR71. cell-free LANA-H2A/H2B peptide, fluorescence polarization. inhibition, % (concentration not given with the values). 320,000 tested, 0.6% active; in the data active means inhibition mostly above about 10%, no sharp cut-off; inactive means mostly below about 6.7%;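 further: stock transfer was 7.5 nL into about 10 µL; 0% = median of vehicle wells and 100% = median of positive control wells; one replicate is shown; the record names a cut of 25% in any replicate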
Bfl-1 A1 inh = caspase 3/7 activation in MEF A1-2A-BIM cells, primary screen, A1 inhibitor project, cell-based, luminescence, HTS | Caspase-Glo 3/7 luminescence, 3 h; percent of clofoctol response, vehicle zero | caspase activation, % (test concentration not listed) | 330,000 tested, 0.066% active | AID 2462, 2010;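 active means over half of replicate activation scores above 10%, or exactly half above 10 with the replicate mean above 10; inconclusive means replicate mean below 10 yet half the replicates above 10; inactive means over half of replicates below 10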;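 further: wells of about 30 µL received 50 nL stock; many hits fall short of the cut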
Beta apoptosis = inhibitors of cytokine-induced beta cell apoptosis, primary screen, luminescence; INS-1E cytokine-induced death, ATP luminescence, 48 h; percent of positive-control rescue, neutral wells zero; protection from apoptosis, % (concentration not given with the values); 300,000 tested, 0.8% active;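 active means all replicates at 75% or more, or half of them and the mean; inconclusive means half reach 75% but not the mean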;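 further: 0% = cytokine-treated negative control wells and 100% = positive control rescue; higher means more ATP so stronger rescue from cytokine killing; wells of about 40 µL received 100 nL stock; the first replicate is given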
RanGTP-Impb inh = inhibitors of RanGTP-importin-beta interaction, primary screen, biochemical, FRET, CFP-Ran, YFP-importin-beta, homogeneous. AID 2216, 2009. inhibition, % (test concentration not listed). 300,000 tested, 1.1% active. cell-free CFP-Ran/YFP-importin-beta FRET ratio;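 active means most replicates above 15%; inconclusive means exactly half above 15%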;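 further: 0% = DMSO wells and 100% = Ran loaded with GDP instead of GTP; wells of about 40 µL received 100 nL stock; the first replicate is given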
T cruzi repl = inhibitors of intracellular T. cruzi growth, primary screen, luminescence, NIH3T3 host cells; T. cruzi beta-gal in NIH3T3, 90 h; inhibition, % (no concentration beside the values); 300,000 tested, 1.4% active; AID 1885, 2009;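 active means mean inhibition across valid replicates above about 55%, limit read from the data; inconclusive means mean below that limit but half or more replicates reach it; inactive means mean below it, under half of replicates reach it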;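 further: signal also drops with host cell toxicity which is not excluded here; 0% = plate median of DMSO wells and 100% = zero luminescence signal; higher percent means less beta-gal luminescence so fewer parasites; stock transfer was 50 nL into about 50 µL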
B2AR ag = beta2AR agonists driving receptor internalization, primary screen, cell-based, FAP fluorogen, flow cytometry. AID 504454, 2011. Beta-2 adrenergic receptor (Homo sapiens), P07550. Am2.2-beta2AR cells; reference of the scale not given here. 340,000 tested, 0.43% active. response, % (no concentration beside the values);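 active means response above a set limit, near 3 SD of response in nonfluorescent compounds, cut at about 42% in these data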;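 further: stock transfer was 100 nL into about 11 µL; a reference agonist was the positive control; negative values mostly stem from fluorescent compounds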
Target sequence (P07550 whole entry, looked up): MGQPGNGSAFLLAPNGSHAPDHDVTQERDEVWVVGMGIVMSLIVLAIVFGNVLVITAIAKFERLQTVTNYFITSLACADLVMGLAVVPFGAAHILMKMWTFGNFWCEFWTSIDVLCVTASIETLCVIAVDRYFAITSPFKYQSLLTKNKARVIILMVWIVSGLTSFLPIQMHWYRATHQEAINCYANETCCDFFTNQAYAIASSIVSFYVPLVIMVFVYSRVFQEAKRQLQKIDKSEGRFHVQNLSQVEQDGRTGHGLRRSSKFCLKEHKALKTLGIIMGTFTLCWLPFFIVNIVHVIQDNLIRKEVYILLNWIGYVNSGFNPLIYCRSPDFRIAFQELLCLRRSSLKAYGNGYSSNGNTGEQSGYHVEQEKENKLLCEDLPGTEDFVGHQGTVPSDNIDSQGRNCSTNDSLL
Calb FLC = C. albicans growth inhibition with fluconazole, primary screen, CaCi-2 strain, Alamar Blue fluorescence; C. albicans CaCi-2 (fluconazole-resistant clinical isolate) + fluconazole, 48 h; growth inhibition, % (concentration not given with the values); 300,000 tested, 0.57% active; AID 1979, 2009;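 active means most replicates above 75%; inconclusive means exactly half above 75%; inactive means most below 75%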;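 further: all wells also contain fluconazole at 8 µg/ml as a sub-toxic cotreatment; 0% = median of DMSO wells and 100% = median of geldanamycin control wells; wells of about 8 µL received 7.5 nL stock; the first replicate is given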
UCH37 DUB inh = inhibitors of human UCH37 deubiquitinase, primary screen, biochemical, Ub-AMC cleavage, fluorescence; 330,000 tested, 0.33% active; inhibition, % (test concentration not listed); Ubiquitin carboxyl-terminal hydrolase isozyme L5 (Homo sapiens), Q9Y5K5; purified proteasome/UCH37;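 active means mean of two replicates above 20%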;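 further: 0% = compound-free wells with enzyme and 100% = wells lacking proteasome; stock transfer was 100 nL into about 20 µL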
Target sequence (Q9Y5K5 whole entry, looked up): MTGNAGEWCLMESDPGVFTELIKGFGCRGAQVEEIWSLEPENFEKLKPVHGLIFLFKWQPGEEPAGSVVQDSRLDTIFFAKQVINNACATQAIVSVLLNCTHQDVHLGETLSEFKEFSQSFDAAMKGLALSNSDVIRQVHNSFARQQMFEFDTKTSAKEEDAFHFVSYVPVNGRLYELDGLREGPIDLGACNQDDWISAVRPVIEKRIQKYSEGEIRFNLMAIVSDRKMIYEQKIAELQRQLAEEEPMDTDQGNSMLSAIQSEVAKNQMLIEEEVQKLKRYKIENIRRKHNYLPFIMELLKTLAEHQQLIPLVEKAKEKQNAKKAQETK
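Schedule: 30 min plus 25 min, room temperature / Material: human UCH37 within purified proteasomes / Technique: AMC fluorescence intensity at 355/460 nm / Buffer or medium: pH 7.4 Tris-HCl (50 mM) with ovalbumin, ATP-MgCl2, DTT / Controls: wells without proteasome as full block, compound-free enzyme plus substrate as uninhibited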
* marks the source's active call; other numbers are inactive results; ? = inconclusive; nt = no result given.

compound | UCH37 DUB inh | B2AR ag | T cruzi repl | Calb FLC | RanGTP-Impb inh | Bfl-1 A1 inh | Beta apoptosis | LANA-H2A inh
CCc1ccccc1Nc1ncnc2ccccc12 | 4.9 | 2 | 22 | 3 | -2.1 | -0.5 | nt | -2.6
N#Cc1c(N)nc2c(c1-c1cccs1)CCCC2 | -23 | 8 | -7 | 26 | 0.1 | 0.5 | 7 | -4.3
CC(C)c1ccc(CNCc2ccccc2)cc1 | 0.8 | -3 | 3 | -21 | -0.5 | -0.8 | 7 | -5.0
Cn1nc(-c2ccccc2)c(CO)c1Oc1ccc(F)cc1 | 2.8 | -1 | -2 | -13 | 3.2 | 0.3 | -7 | 3.5
Cc1ccccc1C(=O)NCCn1cc(SCC(=O)NCC2CCCO2)c2ccccc21 (stereo not given) | 0.0 | -3 | -11 | -4 | 2.6 | -0.5 | 2 | -2.3
CCOC(=O)c1c(N)sc(C(=O)OC)c1C | 2.3 | 4 | 2 | 12 | -0.9 | -0.1 | -1 | -4.2
Cc1cc(C)nc(-n2nc(C)c(C3(O)C(=O)Nc4ccccc43)c2N)n1 (stereo not given) | 4.5 | 0 | -6 | 43 | ? | -0.9 | -10 | 3.2
COC(=O)c1cc(N2CCN(C)CC2)nc2ccccc12 | -213 | -4 | 28 | -17 | -49 | -0.2 | -5 | 2.9
O=C(COC(=O)c1ccco1)NC1CCCCC1 | 2.9 | 6 | -5 | 8 | -1.3 | -0.7 | nt | 6.4
COc1cc(CNC2CCCC2)c(Br)cc1OC1CCCC1 | -1.0 | 11 | 31 | -22 | 2.2 | 0.8 | 8 | -2.2
Cc1cc(C)n2nc(C(=O)OCCOc3ccc(Br)cc3)nc2n1 | 2.2 | -6 | 1 | -28 | 2.3 | -0.2 | 2 | 1.5
COc1ccc(/C=C/C(=O)Nc2ccc(C(N)=O)cc2)cc1OC | -23 | 1 | -4 | -8 | 2.9 | -0.2 | nt | 0.7
CCCn1nnnc1SCC(=O)N1CCOCC1 | 0.7 | 4 | -10 | 3 | 3.2 | -2.1 | 7 | 3.1
COc1ccccc1N(CC(=O)NCCSCc1ccccc1)S(C)(=O)=O | 3.3 | 3 | -6 | 6 | -1.5 | 0.2 | -7 | -3.8
CCn1cc(C(=O)O)c(=O)c2cnc(N3CCN(C(=S)NC(=O)c4ccc(Cl)cc4)CC3)nc21 | 0.9 | nt | 4 | 1 | 1.2 | -1.1 | -8 | 3.9
COc1ccc(/C=N/NC(=O)c2ccc(Cl)cc2)cc1Cn1cc(Cl)cn1 | nt | 2 | 35 | -9 | -4.4 | -0.4 | -8 | 3.6
COc1ccc(-c2noc(CCC(=O)NCc3ccco3)n2)cc1 | 3.1 | -7 | nt | 5 | 4.7 | 0.8 | -2 | 1.4
CCCn1cc(S(=O)(=O)c2ccccc2)c(=O)c2cc(CC)ccc21 | 1.2 | 6 | -7 | 0 | 2.8 | -2.2 | 4 | -6.2
COc1cc(Nc2ccc(C)cc2)c([N+](=O)[O-])nc1[N+](=O)[O-] | 9.8 | 3 | 60* | 28 | ? | 1.5 | 50 | -3.6
O=C(O)[C@@H]1CC(O)CN1C(=O)CCc1c[nH]c2ccccc12 (stereo not given in full) | 4.2 | 6 | -10 | 5 | -0.3 | -0.9 | -3 | 5.3
Cc1cnn(-c2nc(-c3cccs3)cc(C(F)(F)F)n2)c1 | -1.0 | -20 | 15 | 0 | 0.1 | 0.2 | 2 | 1.8
O=C(CCS(=O)(=O)c1ccccc1)Nc1nc(-c2ccc(F)cc2)cs1 | 2.6 | 1 | 12 | 53 | -2.4 | -0.9 | 10 | 2.4
CC(Oc1cc2oc(=O)c3c(c2cc1Cl)CCC3)C(=O)NCCCn1ccnc1 (stereo not given) | -8.0 | -11 | 3 | 1 | -0.5 | 0.6 | nt | 0.3
CC1(C)CC(=O)C(N=Nc2ccc(C(F)(F)F)cc2[N+](=O)[O-])=C(O)C1 | 3.6 | -14 | -16 | 0 | ? | 0.0 | 1 | 5.6
COc1ccc(CCNC(=O)C2CC(c3c(Cl)cccc3Cl)=NO2)cc1 (stereo not given) | 2.4 | -1 | 13 | -15 | -0.9 | 1.0 | 2 | -2.2

The listing continues.
compound | UCH37 DUB inh | B2AR ag | T cruzi repl | Calb FLC | RanGTP-Impb inh | Bfl-1 A1 inh | Beta apoptosis | LANA-H2A inh
CCCCN(CCCC)S(=O)(=O)c1ccc(NC(=O)c2ccc([N+](=O)[O-])cc2Cl)cc1 | 5.4 | -1 | 79* | -4 | -2.7 | -0.4 | -3 | -2.0
CN(C)c1ccc(NC(=O)c2ccc(Cn3cc([N+](=O)[O-])cn3)cc2)cc1 | 4.4 | 18 | 49 | -15 | 2.4 | 0.3 | 7 | 0.7
COc1cccc(CN2CCN(c3ncccn3)CC2)c1OC | 2.6 | 7 | -11 | 14 | -1.7 | -0.2 | -7 | -1.8
COc1ccc(C2CC(c3cccs3)=NN2C(=O)CSc2nnnn2C)cc1OC (stereo not given) | -0.4 | -17 | -1 | -4 | -1.2 | 0.5 | -2 | -2.3
O=c1[nH]nnc2sc3c(c12)CCCC3 | 3.5 | 13 | 4 | 0 | 2.5 | 0.0 | -4 | -3.8
CCOC(=O)CN1C(=O)C(O)(CC(=O)c2ccccn2)c2ccccc21 (stereo not given) | 6.8 | 7 | -26 | -3 | 4.1 | 0.6 | nt | 12
CCC(c1nnc(SCC(=O)NCCc2ccc(OC)c(OC)c2)n1Cc1ccccc1)N(C)C (stereo not given) | 1.5 | -15 | -14 | ? | 3.1 | -0.1 | -5 | 2.8
CCN1C(=O)[C@H]2[C@@H](c3ccc(C)cc3)N3C(=O)N(c4cccc(Cl)c4)C(=O)[C@@]3(C)[C@H]2C1=O | 2.1 | -6 | nt | nt | nt | 1.3 | 0 | -4.3
COCC(C)NC(=S)N1CCN(c2ccccc2Cl)CC1 (stereo not given) | 2.1 | 4 | -7 | 4 | 0.9 | 0.2 | -1 | -3.0
O=C(CCOc1ccccc1)N1CCN(S(=O)(=O)c2cccs2)CC1 | 0.4 | 3 | 0 | 7 | 0.1 | -0.2 | 3 | -3.1
c1ccc(C2CCC3(CC2)Oc2ccccc2C2CC(c4cccnc4)=NN23)cc1 (stereo not given) | -9.8 | nt | 1 | 5 | 4.3 | -0.9 | 2 | 2.7
COc1ccc2cc(/C=N/NC(=O)CN(c3ccccc3C)S(=O)(=O)c3ccccc3)c(Cl)nc2c1 | nt | 7 | -3 | 3 | 3.0 | -0.2 | -4 | -9.1
COc1cccc(OCc2cc(C(=O)N(C)Cc3nccn3C)no2)c1 | 0.0 | -1 | 5 | -7 | ? | -3.0 | -9 | -5.0
O=C(c1ccco1)N1CCN(C(=O)C2CCN(S(=O)(=O)c3cnc[nH]3)CC2)CC1 | 2.3 | 4 | -4 | 8 | -1.8 | 0.6 | 1 | -2.4
O=C(COC(=O)/C=C/c1cccc(C(F)(F)F)c1)NCCN1C(=O)CSC1=O | 0.9 | -2 | nt | nt | nt | -0.9 | -6 | 3.3
O=C(CNC(=O)c1ccccc1)NCC(O)c1ccc([N+](=O)[O-])cc1 (stereo not given) | 2.2 | -1 | -3 | -6 | 0.9 | 0.6 | -1 | -1.3
C=CCn1cc(/C=N/NC(=O)COc2cccc3cccnc23)c2ccccc21 | nt | -4 | 3 | 24 | -1.1 | -0.6 | 0 | -1.3
Cn1cc(C(=O)C(=O)NCCc2ccccc2)c2ccccc21 | 3.0 | -3 | -4 | -1 | -3.9 | -0.4 | nt | 5.3
N#Cc1ccc(S(=O)(=O)N2CCCN(c3nc4ccc(Cl)cc4s3)CC2)cc1 | 2.2 | -8 | 5 | 0 | 3.6 | 1.5 | 4 | -2.8
O=C(Cn1cc(C(=O)C2CC2)c2ccccc21)NCC1CCCO1 (stereo not given) | 3.2 | 0 | -5 | -5 | -2.1 | 0.0 | -1 | -0.2
COc1ccc(NC(=O)Nc2cc(C)ccc2F)cc1 | 1.7 | 10 | -4 | ? | 1.1 | -6.1 | -1 | -0.9
N/C(=N\OC(=O)Nc1ccc(Cl)c(Cl)c1)c1ncc(C(F)(F)F)cc1Cl | -2.0 | 0 | 4 | -12 | 3.7 | -1.0 | -13 | 4.8
O=C(O)/C=C/C(=O)Nc1ccc(OC(F)(F)Cl)cc1 | -3.0 | 7 | 0 | -8 | -0.3 | -0.6 | 0 | 3.1
COc1cccc(-c2ncc3ccccc3c2COC(=O)N2CCCCC2)c1 | -0.7 | 3 | nt | nt | nt | 0.2 | 7 | 5.2
O=C(NCc1ccc(Cl)cc1)NCc1ccc(Cl)cc1 | 3.3 | -3 | 3 | 8 | -4.0 | -0.2 | -1 | 2.5

Further entries:
compound | UCH37 DUB inh | B2AR ag | T cruzi repl | Calb FLC | RanGTP-Impb inh | Bfl-1 A1 inh | Beta apoptosis | LANA-H2A inh
Cc1ccc(NC(=O)c2nc(C)n(-c3ccc([N+](=O)[O-])cc3)n2)cc1 | 4.6 | -9 | 20 | 18 | 0.8 | 0.1 | 2 | 4.9
CCOC(=O)N1CCN(C(=O)CSc2ccc3nnc(CCNC(=O)c4ccc(OC)cc4)n3n2)CC1 | 2.4 | -2 | 9 | 0 | 6.5 | 0.6 | -10 | -1.8
Cc1ccc(-n2c(-c3cccc(C)c3)n[nH]c2=S)cc1 | 2.6 | 1 | 3 | ? | -0.6 | 0.9 | -7 | -0.8
COc1ccc(-n2c(Cc3cccn3C)nnc2SCC(=O)NCc2ccccc2Cl)cc1 | 3.9 | -2 | -3 | -1 | 2.6 | 0.5 | 1 | -2.9
CCOC(CNC(=O)CCc1c(C)nc2nc(C)nn2c1C)OCC | 1.4 | -3 | 2 | 0 | ? | 0.5 | -6 | -0.1
CCOc1ccccc1C(=O)NCCCN1CCN(CCCNC(=O)c2ccccc2OCC)CC1 | 1.4 | 15 | 9 | -7 | 2.9 | 0.3 | -2 | 0.3
CCn1nc(C(=O)Nc2ccc(S(=O)(=O)Nc3ncccn3)cc2)c2ccccc2c1=O | 3.2 | 4 | -12 | 5 | 5.6 | 1.0 | 0 | 0.7
Cc1cccn2c(=O)c(C=C(C#N)C#N)c(N3CCN(c4ccccc4)CC3)nc12 | -4.6 | 7 | -6 | 0 | 25* | 0.5 | 2 | 0.3
NC(=O)c1ccc(NC(=O)COc2cccc3ccccc23)cc1 | 3.0 | 13 | -38 | -3 | -1.9 | 1.6 | -8 | -2.8
COCCn1c(SCC(=O)c2c(-c3ccccc3)n(C)c3ccccc23)nnc1-c1ccncc1 | 8.5 | 6 | 23 | -3 | -5.3 | -0.4 | -3 | 4.8
COc1ccc(CCNC(=O)CSc2ccc(-c3ccco3)nn2)cc1 | -0.2 | -8 | -3 | -4 | 9.2 | 0.5 | 0 | 5.6
